# Screening results: PubChem, National Center for Advancing Translational Sciences (NCATS)
# Vaccinia Venus – qHTS for Stage-Specific Inhibitors of Vaccinia Orthopoxvirus: Venus Reporter Primary qHTS; Vaccinia virus Venus reporter expression, fluorescence; Potency, µM (highest dose often 36.5 µM), without a hit: at the highest dose activity change, negative = inhibition, hits mostly inhibitors; 330,000 compounds, 0.46% hits; AID 720580, 2013; active means well fitted inhibition curve with a large enough effect; inconclusive means small, poorly fitted or top-dose-only effect; inactive means no such curve, though single readings can be large or run the other way; tested in A549 cells; also: nearly all actives have a fitted effect of over 30% in size; inactives centre near -10
# VACV mCherry inh – qHTS for Stage-Specific Inhibitors of Vaccinia Orthopoxvirus: mCherry Reporter Primary qHTS; Vaccinia virus mCherry reporter infection, fluorescence; about a quarter of the inactives have no number; Potency, µM (highest dose often 36.5 µM), for the others: at the top dose activity change, negative = inhibition, hits mostly inhibitors; 310,000 compounds, 0.63% hits; active = well fitted inhibition curve with a large enough effect; inconclusive = small, poorly fitted or top-dose-only effect; inactive = no such curve, though single readings can be large or run the other way; tested in A549 cells; also: nearly all actives have a fitted effect of over 35% in size; inactives centre near -10
# An asterisk follows results filed as active; i = inactive; ? = inconclusive; / = not tested or not shown; & = joins results of further samples; [ ] = another dose, or the depositor's remark. % is scaled to controls: 0 for no effect and ±100 for the full control effect; potency is read from the fitted curve at half-maximal effect.
Structure	Vaccinia Venus	VACV mCherry inh
O=S(=O)(NC1CCCCC1NCc1ccco1)c1ccc(Cl)cc1 (stereo unspecified)	-5%	-14%
Cc1ccc(-c2csc(N3CCN(c4ccc5nc(-c6ccncc6)n(CCN6CCCCC6)c5c4)CC3)n2)cc1	?	-26%
C[C@H](CO)N1C[C@H](C)[C@@H](CN(C)C(=O)Nc2ccc(C(F)(F)F)cc2)Oc2c(NC(=O)Nc3ccc(C(F)(F)F)cc3)cccc2C1=O	?	?
CC(C)(C)OC(=O)NCCC(=O)N/N=C/c1ccc2nccnc2c1	-12%	-10%
CNc1cncc(-c2cccnc2)n1	2%	32%[activator]
COc1ccc(C(NC(=O)c2ccccc2F)NC(=O)c2ccccc2F)cc1	5%	-3%
COc1ccc2c(c1)-c1c(sn(-c3ccc(OC)c(OC)c3)c1=S)C(C)(C)N2	-28%	-4%
Cn1c(=O)[nH]c(=O)c2c1nc(N1CCOCC1)n2CCc1ccccc1	-8%	-11%
O=S1(=O)CC(N2CCCC2)CN1Cc1ccccc1 (stereo unspecified)	3%	i
N#Cc1ccc(OCC(O)CN2CCN(c3ncc(C(F)(F)F)cc3Cl)CC2)cc1 (stereo unspecified)	-8%	?
Cc1cc(Cl)ccc1OCC(=O)NC(=S)Nc1ccccc1N1CCOCC1	-8%	-1%
COc1ccccc1-n1c(=S)[nH]c2c(sc(=S)n2-c2ccccc2)c1=O	-3%	-2%
CCN1CCN(C(=O)C2CCN(S(=O)(=O)c3ccc4c(c3)NC(=O)C(C)S4)CC2)CC1 (stereo unspecified)	-15%	-22%
Cn1c(/C(C#N)=C2/CCCCCN2)nc2ccccc21	-3%	/
COC(=O)C1=C(c2c(C)noc2C)C[C@@H]2CC[C@H]1N2C(=O)NCc1ccc(C(F)(F)F)cc1	-14%	-12%
CC(=O)N1Cc2cc(C(=O)NCC(F)(F)F)nc(-c3cccc(-c4cccnc4)c3)c2[C@@H]1CCO	-22%	-7%
C[N+](C)(CCCCCC[N+](C)(C)CCCN1C(=O)c2ccccc2C1=O)CCCN1C(=O)c2ccccc2C1=O	-7%	-13%
CC(=O)N(c1ccccc1)c1nc(/C=C/C(=O)O)cs1	1%	i
CCc1ccc(NC(=O)C2CCN(S(=O)(=O)c3cccs3)CC2)cc1	-29%	-7%
COc1ccccc1/C=C/C=N/NC(=O)c1ccncc1	-9%	i
COc1ccc(C(=O)CSc2nc3nn(-c4ccccc4)c(=O)c-3c3n2CCCCC3)c(OC)c1	-26%	-11%
CCc1c(C)nc(N)n2c(SCC(=O)Nc3ccccc3OC)nnc12	-3%	-6%
Cc1nn(-c2ccccc2)c2c1C(c1cccc([N+](=O)[O-])c1)N(c1ccccc1)C(=O)N2 (stereo unspecified)	-4%	-7%
C[C@H](O)[C@@H]1C(=O)N2CCc3c([nH]c4ccccc34)[C@@H]2C[C@@H]1N(C)C(=O)Nc1ccccc1	-27%	?
Cc1ccc(-n2c(O)c(C=NCc3cccnc3)c(=O)[nH]c2=O)cc1C	-11%	-25%[1.46 µM]

# Structural class: the compounds so far containing a Cl atom
Structure	Vaccinia Venus	VACV mCherry inh
O=S(=O)(NC1CCCCC1NCc1ccco1)c1ccc(Cl)cc1 (stereo unspecified)	-5%	-14%
N#Cc1ccc(OCC(O)CN2CCN(c3ncc(C(F)(F)F)cc3Cl)CC2)cc1 (stereo unspecified)	-8%	?
Cc1cc(Cl)ccc1OCC(=O)NC(=S)Nc1ccccc1N1CCOCC1	-8%	-1%

# Rewritten with two lines to a compound: 2 of the compounds above.
# Each structure is followed by: Vaccinia Venus, VACV mCherry inh
- Cc1cc(Cl)ccc1OCC(=O)NC(=S)Nc1ccccc1N1CCOCC1
→ -8%, -1%
- CC(=O)N1Cc2cc(C(=O)NCC(F)(F)F)nc(-c3cccc(-c4cccnc4)c3)c2[C@@H]1CCO
→ -22%, -7%

# (further entries)
Structure	Vaccinia Venus	VACV mCherry inh
CC(C)C[C@H]1CN(CCCC[C@@H]2CNC(=O)C(=O)N2Cc2ccccc2)C(=O)C(=O)N1CCc1ccc(O)cc1	0%	36%[activator]
O=C(c1cc(O)c(O)c([N+](=O)[O-])c1)c1ccccc1F	-8%	-8%
C=CCN1CC(C)/C(=N\O)CC1C (stereo unspecified)	-4%	-1%
O=C(CCl)NCCN1C(=O)S/C(=C\c2cccnc2)C1=O	?	?
COc1cccc(CN2CCC(n3cc(C(=O)NC4CCCC4)nn3)CC2)c1O	-1%	-4%
CCCCn1c(-c2csc3ccccc23)n[nH]c1=S	-12%	-10%
CC(C)C(=O)NCCc1nc(-c2ccc(Cl)cc2)no1	-6%	i
COc1ccc([C@@H]2CC(=O)c3c(O)cc(O[C@@H]4O[C@H](CO[C@@H]5O[C@@H](C)[C@H](O)[C@@H](O)[C@H]5O)[C@@H](O)[C@H](O)[C@H]4O)cc3O2)cc1O	-6%	-12%
Cc1sc2ncnc(N3CCC(C(=O)Nc4nnc(CC(C)C)s4)CC3)c2c1C	-8%	-11%
O=C(Nc1nnc(COc2ccccc2F)s1)Nc1ccccc1F	-29%	i
CS(=O)(=O)N1CCc2cc(NC(=O)c3ccc(Cl)cc3Cl)ccc21	-12%	i
COc1ccc(Nc2cc(C)nc3ncnn23)cc1Cl	16%	-8%
S=P(N1CCOCC1)(N1CC1)N1CC1	-8%	i
COc1ccc(C(=O)C2CCCN(C(=O)c3cccnc3OC)C2)cc1F (stereo unspecified)	-7%	-11%
CCOc1cc(/C=N/NC(=O)CN2CCCCC2)ccc1O	-7%	-8%
Cc1ccc(NC(=O)CSCC(=O)OC(C)C(=O)Nc2ccccc2C)cc1 (stereo unspecified)	2%	-9%
Cc1cc(C)nc(SCc2ccc(C(=O)N/N=C/c3ccc(C(=O)O)cc3)cc2)n1	-15%	-9%
CCOc1ccccc1CNC(=O)CCCN1C(=O)COc2ccc(C)cc21	-6%	-9%
CN1/C(=C/C=C(C#N)C#N)C(C)(C)c2ccccc21	2%	-9%
O=S(=O)(Cc1cc(-c2ccc(Cl)cc2)no1)c1ccccc1	-27%	/
Cc1cc(F)ccc1Nc1nc2ccc(Cl)cc2n2cnnc12	-8%	-11%
Cc1ccc(C)c(NC(=O)c2sc(Cl)nc2-c2ccccc2)c1	-7%	i
CCN(CC)S(=O)(=O)c1ccc(C(=O)NC(C)(C)C)cc1	-10%	3%
CC(C)(C)OC(=O)NCc1ccc(NC(=O)c2nc[nH]c2C(=O)NCCN(CCNC(=O)c2[nH]cnc2C(=O)Nc2ccc(CNC(=O)OC(C)(C)C)cc2)CCNC(=O)c2[nH]cnc2C(=O)Nc2ccc(CNC(=O)OC(C)(C)C)cc2)cc1	-3%	i
N#Cc1cc(Sc2ccccn2)c([N+](=O)[O-])cc1C#N	-8%	-11%
COc1ccc(CC(=O)OCC(=O)N2N=C(c3ccccc3)CC2c2ccc(OC)cc2)cc1 (stereo unspecified)	-20%	-12%
CC(C)N=c1cc2n(-c3ccc(Cl)cc3)c3ccccc3nc-2cc1Nc1ccc(Cl)cc1	?	i
CC(C)CNc1ncnc2c1ncn2[C@H]1CN(Cc2ccc(-c3ccccc3)cc2)C[C@@H](CO)O1	?	?
Cc1nccn1CC1CCc2c(c3ccccc3n2C)C1=O (stereo unspecified)	-16%&-14%	-1%
CC(C)(C)NC(=O)Nc1ccccc1C(N)=O	-10%	-8%
Cc1cc(C)c[n+](CC(=O)c2ccccc2)c1	-14%	?
Cc1cc(C)n(CC(=O)N/N=C/c2ccc([N+](=O)[O-])s2)n1	?	?
CCCCOc1ccccc1C1NC(=O)CCC1[N+](=O)[O-] (stereo unspecified)	-10%	-16%
COc1ccc(/C(O)=C2/C(=O)C(=O)N(CC3CCCO3)C2c2ccc(O)c(OC)c2)cc1 (stereo unspecified)	-2%	?
COc1ccc(OC)c(CN2CCN(C(=O)c3ccc(S(=O)(=O)N4CCCCCC4)cc3)CC2)c1	-21%	-19%
O=C(/C=C/[C@H]1O[C@@H](n2ccc(=O)[nH]c2=O)[C@H](O)[C@@H]1O)NCc1ccccc1	-7%	6%
Cc1cc2nc(-c3cccc(Cl)c3)c(CC3CCCCC3)n2c(C)c1Br	5%	12%
O=C(Nc1nnc(-c2ccccc2)s1)c1ccccc1O	-3%	-5%
CCOC(=O)Cn1c(=O)n(Cc2ccc(OC)cc2)c(=O)c2cccnc21	-14%	-4%
CC1(C)NC(=O)N(CCCOc2ccccc2Br)C1=O	-18%	-18%
CC1=C[C@@H](C)[C@@H](c2ccc(C(F)(F)F)cc2)OC1=O	-10%	-21%
O=c1c2c(nc3c(-c4cccc5ccccc45)c[nH]n13)CCC2	-20%	0%
Cc1ccc(N(CC(=O)NCc2ccco2)C(=O)CNS(=O)(=O)c2ccc(F)cc2)c(C)c1	-23%	-3%
COc1ccc(N2CCN(C(c3ccc(F)cc3)c3sc4nc(-c5ccco5)nn4c3O)CC2)cc1 (stereo unspecified)	-9%	-14%
Cc1cc(C)cc(-n2c(SCC(N)=O)nc3c(oc4ccccc43)c2=O)c1	1%	21%
Cc1cccc(-n2ncc(C(=O)N3CCOCC3)c2C2CCN(C(=O)OC(C)(C)C)CC2)c1	-16%	-15%
CCOc1cc(S(=O)(=O)NCCCN2CCOCC2)c(C)cc1C	-18%	-21%
O=C(CN1CCC(O)CC1)N1c2ccccc2C=Cc2ccccc21	-15%	/
CC(C)(C)n1cnc2cc(NC(=O)c3cccs3)ccc21	-1%	-8%
O=C(NCCC(F)(F)F)C1Cc2c(-c3ccccc3Oc3ccccc3)ccnc2O1 (stereo unspecified)	-16%	i

# Next part; the last three above are carried over.
Structure	Vaccinia Venus	VACV mCherry inh
O=C(CN1CCC(O)CC1)N1c2ccccc2C=Cc2ccccc21	-15%	/
CC(C)(C)n1cnc2cc(NC(=O)c3cccs3)ccc21	-1%	-8%
O=C(NCCC(F)(F)F)C1Cc2c(-c3ccccc3Oc3ccccc3)ccnc2O1 (stereo unspecified)	-16%	i
O=[N+]([O-])c1cccc(/C=N/Nc2nc(N3CCCCC3)nc(N3CCCCC3)n2)c1	-11%	i
CCCn1c(=O)[nH]c(=O)c2c(C(F)(F)F)cc(-c3ccc(C)cc3)nc21	3%	i
O=C(c1ccccc1)N(NC(=O)C(O)(c1ccccc1)c1ccccc1)c1cccc(F)c1	-18%	i
CC(=O)c1ccccc1NC(=O)CSc1n[nH]c(=O)n1C1CC1	-13%	-13%
Cn1c(=O)cc(SCC(=O)N2CCC3(CC2)OCCO3)c2ccccc21	-4%	-12%
NS(=O)(=O)c1ccc(-n2ncc3c(=O)[nH]c(SCC(=O)Nc4nccs4)nc32)cc1	-5%	-1%
NNC(=O)c1sc2cc(C(F)(F)F)cnc2c1-c1cccs1	-6%	-16%
Cc1cccc(CNc2nc(-c3ccccc3CN(C)C)nc3ccccc23)c1	-29%	?
CCOC(=O)C(C)Sc1nnc(-c2c[nH]c3ccccc23)n1C (stereo unspecified)	4%	i
O=C(c1ccc2c(c1)OCO2)N(c1ccc(Br)cc1)C1C=CS(=O)(=O)C1 (stereo unspecified)	-13%	-14%
CCN(c1cccc(C)c1)c1ncnc2c1cnn2-c1cccc(Cl)c1	13%	1%
Cc1noc(-c2ccc(-c3noc(-c4ccccc4)n3)cc2)n1	-1%	-5%
O=c1[nH]c2cccnc2n(CCNc2ncc(C(F)(F)F)cc2Cl)c1=O	-2%	-9%
O=C(c1cc(-c2ccccn2)nc2ccc(Cl)cc12)N1CCN(CCc2ccccc2)CC1	-8%	i
COc1cc(/C=C2\SC(=O)N(CCN)C2=O)ccc1OS(=O)(=O)c1cc(C)ccc1C	-24%	-28%
CCOc1ccc(NC(=O)CSc2nnc(C)n2Cc2ccccc2)cc1	-11%	i
O=c1c2ccccc2oc2ccc(C#CC3(O)CCCCC3)cc12	-21%	-25%
C=CCn1c(SCC(=O)O)nc2sc(CC)cc2c1=O	-3%	i
COc1ccccc1-c1nn2c(=O)cc(CN3CCN(C(=O)COc4ccccc4Cl)CC3)nc2s1	-18%	-17%
CC(=O)Nc1ccc(NC(=O)Cc2ccc(S(=O)(=O)N3CCCCC3)s2)cc1	-10%	i
CN(C)CCOC(=O)c1cn(Cc2ccccc2)c2ccccc12	-23%	/
CCOC(=O)Cn1nc(C)c(NC(=O)c2cccc([N+](=O)[O-])c2)c1C	-8%	2%
COc1cc2nc(CN(C)Cc3ccc(SC)cc3)[nH]c(=O)c2cc1OC	-10%	-12%
Cc1cccc(C)c1NC(=O)C1C(c2ccc3c(c2)OCO3)=Nc2ccccc2N1C(=O)c1cccc(C(F)(F)F)c1 (stereo unspecified)	?	-4%
CSc1nc(N2CCN(C)CC2)c2c(c1C#N)CC(C)(C)OC2	2%	-11%
COc1ccc(NS(=O)(=O)c2cccc(C(=O)N(C)CC(=O)Nc3ccc(C)cc3)c2)cc1	-19%	?
